NOMO-1 viab – STK33 inhibitor candidate reducing NOMO-1 cell viability | NOMO-1 AML viability, CellTiter-Glo luminescence, 72 h | inhibition, % (concentration not given with the values) | hit rate 7.5% among 37,000;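 active = most replicates above 80%; inconclusive = exactly half above 80%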;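 note: wells of about 30 µL received 25 nL stock; 0% = median of vehicle wells and 100% = reference inhibitor level; the first replicate is given; inactives centre near 10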
* marks the source's active call; other numbers are inactive results; ? = inconclusive. Some of the compounds tested; the hit share may differ from the screen's.

No.	SMILES	NOMO-1 viab
1	C[C@@H]1CN([C@@H](C)CO)C(=O)c2cc(NS(C)(=O)=O)ccc2O[C@@H]1CN(C)C	-7
2	Cc1ccc(S(=O)(=O)N(C)C[C@@H]2Oc3c(NC(=O)C4CCCCC4)cccc3C(=O)N([C@@H](C)CO)C[C@H]2C)cc1	21
3	CC(Oc1ccc(Cl)cc1Cl)C(=O)Nc1nnn(C)n1 (configuration not stated)	9
4	CS(=O)(=O)N(CC(=O)Nc1cccc(Cl)c1)c1ccc(Br)cc1	20
5	CCc1ccc(O)c(NC(=S)NC(=O)COc2ccc(C)cc2C)c1	120*
6	C[C@H](CO)N1C[C@H](C)[C@H](CN(C)Cc2ccc3c(c2)OCO3)Oc2ccc(NC(=O)C3CCCCC3)cc2CC1=O	10
7	N#CC(C(=O)NCc1ccco1)c1ccccc1 (configuration not stated)	42
8	CC(C)NC(=O)N(C)C[C@@H]1Oc2c(NS(=O)(=O)c3ccc(Cl)cc3)cccc2C(=O)N([C@H](C)CO)C[C@@H]1C	12

Next compounds
No.	SMILES	NOMO-1 viab
9	Cc1ccc(S(=O)(=O)Nc2cccc3c2O[C@@H](CN(C)S(=O)(=O)c2cn(C)cn2)[C@H](C)CN([C@@H](C)CO)C3=O)cc1	1
10	COc1ccccc1OCc1nc2c3c(-c4ccccc4)c(-c4ccccc4)oc3ncn2n1	-5
11	C[C@H](CO)N1C[C@H](C)[C@@H](CN(C)S(=O)(=O)c2ccc(Cl)cc2)Oc2c(NS(C)(=O)=O)cccc2C1=O	6
12	CCCn1nnc(NC(=O)COc2ccccc2Cl)n1	1
13	C[C@@H]1CN([C@@H](C)CO)C(=O)c2cccc(NC(=O)Nc3ccccc3)c2O[C@@H]1CN(C)Cc1ccc(-c2ccccc2)cc1	102*
14	Cc1ccc(N(C(C)C(=O)Nc2cccc(F)c2)S(C)(=O)=O)cc1 (configuration not stated)	-5
15	COc1ccc(C(=O)CC(=O)O)c2c1C=CC(C)(C)O2	24
16	C[C@@H]1CN([C@H](C)CO)C(=O)c2cc(NC(=O)Cc3ccccc3)ccc2O[C@H]1CN(C)C(=O)Nc1ccc(F)cc1	-14

Additional structures follow:
No.	SMILES	NOMO-1 viab
17	COc1ccc(S(=O)(=O)Nc2ccc3c(c2)CC(=O)N([C@H](C)CO)C[C@H](C)[C@H](CN(C)S(=O)(=O)c2ccc(OC)cc2)O3)cc1	25
18	C[C@@H]1CN([C@H](C)CO)C(=O)c2cc(NC(=O)c3ccncc3)ccc2O[C@@H]1CN(C)Cc1ccncc1	7
19	CCCCCC1C(=O)O/C(=C\C(=O)O)C1=O (configuration not stated)	-22
20	Cc1ccc(S(=O)(=O)Nc2ccc3c(c2)C(=O)N([C@@H](C)CO)C[C@H](C)[C@@H](CN(C)S(=O)(=O)c2cn(C)cn2)O3)cc1	10
21	COc1ccc(-n2c(SCC(N)=O)nnc2-c2cccs2)cc1	-4
22	CSc1cccc(NC(=O)Cn2cc(Br)c([N+](=O)[O-])n2)c1	7
23	COc1ccc(S(=O)(=O)Nc2cccc3c2O[C@@H](CN(C)C(=O)NC(C)C)[C@H](C)CN([C@@H](C)CO)C3=O)cc1	16
24	C[C@@H]1CN([C@H](C)CO)C(=O)Cc2cc(NC(=O)Nc3ccc4c(c3)OCO4)ccc2O[C@@H]1CN(C)S(=O)(=O)c1ccccc1	3

Later entries.
No.	SMILES	NOMO-1 viab
25	C[C@@H]1CN([C@@H](C)CO)C(=O)c2cccc(NS(=O)(=O)c3ccc(Cl)cc3)c2O[C@H]1CN(C)Cc1ccc(-c2ccccc2)cc1	31
26	CNC[C@@H]1Oc2ccc(NC(=O)Nc3ccc(F)cc3)cc2CC(=O)N([C@H](C)CO)C[C@H]1C	12
27	CC(C)N(Cc1nc(-c2ccc(Cl)cc2)no1)S(=O)(=O)c1ccc(F)cc1	61
28	C[C@H](CO)N1C[C@H](C)[C@@H](CN(C)Cc2ccc(C(=O)O)cc2)Oc2ccc(NS(=O)(=O)c3cccs3)cc2C1=O	8
29	C[C@@H]1CN([C@@H](C)CO)C(=O)c2cc(NC(=O)Cc3cn(C)c4ccccc34)ccc2O[C@H]1CN(C)Cc1ccc(-c2ccccc2)cc1	26
30	COC(=O)c1ccccc1NC(=O)Cn1cncc1-c1ccc([N+](=O)[O-])cc1	40
31	Cc1noc(C)c1NC(=O)N(C)C[C@@H]1Oc2c(NC(=O)C3CCCCC3)cccc2C(=O)N([C@H](C)CO)C[C@@H]1C	-6
32	C[C@@H]1CN([C@H](C)CO)C(=O)c2cc(NC(=O)C3CCCCC3)ccc2O[C@H]1CN(C)S(=O)(=O)c1cn(C)cn1	9

Continued.
No.	SMILES	NOMO-1 viab
33	C[C@@H]1CN([C@H](C)CO)C(=O)c2cccc(NC(=O)C3CC3)c2O[C@@H]1CN(C)S(=O)(=O)c1cccs1	16
34	CCc1ccc(C2C(C#N)=C(C)NC3=C2C(=O)CC(C)(C)C3)cc1 (configuration not stated)	86*
35	Cc1cc(OCc2ccc(Br)cc2)nc(-c2ccccc2O)n1	0
36	C[C@@H]1CN([C@@H](C)CO)C(=O)c2cc(NC(=O)Nc3ccc(F)cc3)ccc2O[C@@H]1CN(C)S(=O)(=O)c1ccccc1	?
37	Cn1c(=O)c(Nc2ccccc2)c2c3c(cccc31)C(=O)c1ccccc1-2	16
38	CN(CC(=O)Nc1ccccc1C(F)(F)F)S(=O)(=O)c1ccc(F)cc1	8
39	O=C1CSC2=NC3=C(CCc4ccccc43)C(c3cccs3)N12 (configuration not stated)	39
40	CC(C)c1ccc(N2C=Nc3ccc(C(C)C)cc3C2)cc1	115*

(list continues)
No.	SMILES	NOMO-1 viab
41	COc1cccc(N(CC(=O)Nc2ccc(C)c(Cl)c2)S(C)(=O)=O)c1	16
42	C[C@@H]1CN([C@H](C)CO)C(=O)c2cc(NC(=O)CCCN(C)C)ccc2O[C@@H]1CN(C)Cc1ccc(C(F)(F)F)cc1	12
43	COc1ccc(NC(=O)Nc2cccc3c2O[C@@H](CN(C)C)[C@H](C)CN([C@@H](C)CO)C3=O)cc1	6
44	COc1ccc(CN(C)C[C@@H]2Oc3c(NC(=O)c4nc5ccccc5s4)cccc3C(=O)N([C@@H](C)CO)C[C@H]2C)cc1	70
45	Cc1ccc(C2CC(=O)c3cnc(NCCN4CCOCC4)nc3C2)cc1 (configuration not stated)	21
46	COc1ccc(S(=O)(=O)Nc2cccc3c2O[C@H](CN(C)Cc2ccc(Oc4ccccc4)cc2)[C@H](C)CN([C@@H](C)CO)C3=O)cc1	40
47	COc1ccc(CN(C)C[C@@H]2Oc3c(NC(=O)C4CCCCC4)cccc3C(=O)N([C@H](C)CO)C[C@H]2C)cc1	68
48	Nc1nc(N2CCCC2)ncc1S(=O)(=O)c1ccc(C(F)(F)F)cn1	4

(more compounds)
No.	SMILES	NOMO-1 viab
49	COC(=O)c1ccccc1NC(=O)CNC(=O)c1ccccc1F	2
50	FC(F)(F)c1ccc(-c2n[nH]c(=S)s2)nc1	44
51	CCOC(=O)Cc1[nH]nc2c1C(C(C)C)C(C#N)=C(N)O2 (configuration not stated)	61
52	C[C@H]1CN([C@@H](C)CO)C(=O)Cc2cc(NC(=O)CCN3CCOCC3)ccc2O[C@H]1CN(C)C(=O)NC1CCCCC1	-10
53	C[C@@H]1CN([C@H](C)CO)C(=O)Cc2cc(NC(=O)Cc3cn(C)c4ccccc34)ccc2O[C@H]1CN(C)Cc1ccc(Oc2ccccc2)cc1	68
54	Cc1cccc(-c2nnc(SCC(=O)Nc3c(Cl)cc(Cl)cc3Cl)o2)c1	-15
55	COc1ccccc1CC(=O)Nc1ccc(-c2noc(-c3ccc(Cl)cc3)n2)cc1	29
56	Cc1nn(Cc2nnc(-c3cc(C(F)(F)F)cc(C(F)(F)F)c3)o2)c(C)c1Br	19

Continued.
No.	SMILES	NOMO-1 viab
57	COc1ccc(Cl)c(Cn2c(NCc3ccccn3)nc3c2c(=O)n(C)c(=O)n3C)c1	11
58	C[C@H](CO)N1C[C@H](C)[C@@H](CN(C)C(=O)Nc2ccc(C(F)(F)F)cc2)Oc2c(NC(=O)c3ccc(-c4nccs4)cc3)cccc2C1=O	23
59	Cc1cc(C(F)(F)F)nn1CCCNC(=O)c1cc(-c2cccnc2)nc2ccc(Cl)cc12	8
60	C[C@@H]1CN([C@@H](C)CO)C(=O)c2cc(NC(=O)Nc3ccc(C(F)(F)F)cc3)ccc2O[C@@H]1CN(C)Cc1ccc(C(F)(F)F)cc1	118*
61	C[C@@H]1CN([C@H](C)CO)C(=O)Cc2cc(NC(=O)C3CC3)ccc2O[C@@H]1CN(C)S(=O)(=O)c1ccc(Cl)cc1	15
62	C[C@@H]1CN([C@@H](C)CO)C(=O)c2cc(NC(=O)Cc3cn(C)c4ccccc34)ccc2O[C@@H]1CN(C)Cc1ccncc1	31
63	Cc1cc(SCC(=O)N2CCC(c3noc4ccc(F)cc34)CC2)nc2ccccc12	-9
64	C[C@@H]1CN([C@@H](C)CO)C(=O)c2cccc(NC(=O)Nc3ccccc3)c2O[C@H]1CN(C)C(=O)Nc1ccccc1	28

Next part:
No.	SMILES	NOMO-1 viab
65	Cc1noc(C)c1NC(=O)Nc1cccc2c1O[C@@H](CN(C)C(=O)NC1CCCCC1)[C@H](C)CN([C@H](C)CO)C2=O	-5
66	CCn1c(SCC(=O)Nc2ccccc2OC)nnc1-c1ccc(Br)cc1	14
67	CCOC(=O)N1CCC(NC(=O)CCCC(=O)O)CC1	-33
68	N#CNC(=NC1CCCCC1)NC1CCCCC1	4
69	Nc1cc(N)nc(SCC(=O)Nc2cccc(C(F)(F)F)c2)n1	17
70	N#Cc1c(C(F)(F)F)cc(-c2cccs2)nc1S/C=C/C(=O)c1ccccc1	116*
71	C[N+]12CCCCC1C(CN1C(=O)c3ccccc3C1=O)CCC2 (configuration not stated)	12
72	C[C@H](CO)N1C[C@H](C)[C@@H](CN(C)C(=O)Nc2ccccc2)Oc2ccc(NS(=O)(=O)c3cn(C)cn3)cc2C1=O	-1

(listing goes on)
No.	SMILES	NOMO-1 viab
73	N=c1n(CC(=O)c2ccco2)c2ccccc2n1Cc1ccccc1	37
74	CCOC(=O)CSc1nc(Nc2ccc(OC)cc2)c2cnc(N(CC)CC)nc2n1	120*
75	COc1ccc(S(=O)(=O)N2Cc3ccccc3CC2C(=O)Nc2sc3c(c2C#N)CCCC3)cc1 (configuration not stated)	11
76	C[C@H](CO)N1C[C@H](C)[C@H](CN(C)Cc2ccc(Cl)c(Cl)c2)Oc2ccc(NC(=O)CCC(F)(F)F)cc2CC1=O	54
77	O=[n+]1c(CO)c(CO)n([O-])c2ccccc21	29
78	COc1ccc(S(=O)(=O)N(C)C[C@H]2Oc3c(NS(=O)(=O)c4ccc(F)cc4)cccc3C(=O)N([C@H](C)CO)C[C@H]2C)cc1	24
79	COc1cc(CO)cc(Cl)c1OCC(=O)Nc1ccccc1F	5
80	C[C@@H]1CN([C@H](C)CO)C(=O)c2cccc(NC(=O)Nc3cccc4ccccc34)c2O[C@@H]1CN(C)C(=O)NC1CCCCC1	52

Other entries
No.	SMILES	NOMO-1 viab
81	Cc1ccc(NC(=O)CSc2n[nH]c(-c3ccccc3)n2)c(C)c1	0
82	Cc1cc(-c2nc3ccccc3s2)ccc1NC(=O)COc1ccccc1[N+](=O)[O-]	41
83	C[C@H](CO)N1C[C@H](C)[C@@H](CN(C)C)Oc2ccc(NC(=O)NC3CCCCC3)cc2C1=O	-4
84	Cc1ccc(S(=O)(=O)N(C)C[C@@H]2Oc3ccc(NC(=O)Nc4ccc(F)cc4)cc3CC(=O)N([C@H](C)CO)C[C@@H]2C)cc1	127*
85	C[C@@H]1CCCCO[C@@H](CN(C)C(=O)CCCN(C)C)[C@@H](C)CN([C@H](C)CO)C(=O)c2cc(NC(=O)Nc3ccc(F)cc3)ccc2O1	11
86	COc1cc(C(=O)Oc2ccccc2NC2=NS(=O)(=O)c3ccccc32)cc(OC)c1OC	28
87	C[C@H](CO)N1C[C@H](C)[C@H](CN(C)S(=O)(=O)c2ccccc2)Oc2ccc(NC(=O)Nc3ccc4c(c3)OCO4)cc2C1=O	33
88	O=C(CSc1nc2ccccc2s1)NC1CCCCC1	10

(next part)
No.	SMILES	NOMO-1 viab
89	Cc1ccc(S(=O)(=O)N(C)C[C@H]2Oc3ccc(NC(=O)C4CCCCC4)cc3C(=O)N([C@H](C)CO)C[C@H]2C)cc1	24
90	O=C(c1cccs1)N1CCCn2c(SCc3ccccc3)nnc21	9
91	C[C@@H]1CN([C@H](C)CO)C(=O)c2cccc(NC(=O)CCCCCC(=O)Nc3ccccc3N)c2O[C@@H]1CN(C)C(=O)Nc1ccccc1	8
92	N#Cc1ccccc1NC(=O)CS(=O)(=O)Cc1ccccc1	-6
93	COc1ccc(S(=O)(=O)N(C)C[C@@H]2Oc3ccc(NC(=O)Nc4ccccc4)cc3C(=O)N([C@H](C)CO)C[C@H]2C)cc1	11

In the list so far, 11 have a CF3 group:
No.	SMILES	NOMO-1 viab
38	CN(CC(=O)Nc1ccccc1C(F)(F)F)S(=O)(=O)c1ccc(F)cc1	8
42	C[C@@H]1CN([C@H](C)CO)C(=O)c2cc(NC(=O)CCCN(C)C)ccc2O[C@@H]1CN(C)Cc1ccc(C(F)(F)F)cc1	12
48	Nc1nc(N2CCCC2)ncc1S(=O)(=O)c1ccc(C(F)(F)F)cn1	4
50	FC(F)(F)c1ccc(-c2n[nH]c(=S)s2)nc1	44
56	Cc1nn(Cc2nnc(-c3cc(C(F)(F)F)cc(C(F)(F)F)c3)o2)c(C)c1Br	19
58	C[C@H](CO)N1C[C@H](C)[C@@H](CN(C)C(=O)Nc2ccc(C(F)(F)F)cc2)Oc2c(NC(=O)c3ccc(-c4nccs4)cc3)cccc2C1=O	23
59	Cc1cc(C(F)(F)F)nn1CCCNC(=O)c1cc(-c2cccnc2)nc2ccc(Cl)cc12	8
60	C[C@@H]1CN([C@@H](C)CO)C(=O)c2cc(NC(=O)Nc3ccc(C(F)(F)F)cc3)ccc2O[C@@H]1CN(C)Cc1ccc(C(F)(F)F)cc1	118*
69	Nc1cc(N)nc(SCC(=O)Nc2cccc(C(F)(F)F)c2)n1	17
70	N#Cc1c(C(F)(F)F)cc(-c2cccs2)nc1S/C=C/C(=O)c1ccccc1	116*
76	C[C@H](CO)N1C[C@H](C)[C@H](CN(C)Cc2ccc(Cl)c(Cl)c2)Oc2ccc(NC(=O)CCC(F)(F)F)cc2CC1=O	54

High-throughput results: PubChem, Broad Institute
